Compound activity as filed in PubChem BioAssay.
PrP 5UTR inh – inhibition of PrP 5' UTR reporter expression | cell-based PrP 5' UTR mRNA reporter, plate reader | inhibition, % (no concentration beside the values) | 340,000 compounds, 0.35% hits | AID 488862;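 active = every replicate at 50% or more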;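 note: 0 = median of the neutral control wells; tested in H4 reporter cells; numbers are from one replicate; inactives centre near -14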
Mtb hypoxia rep – Mtb hypoxia fluorescent reporter inhibition. M. tuberculosis hypoxia-regulated fluorescent reporter, fluorescence. fluorescence inhibition, % (concentration not given with the values). 300,000 compounds, 0.1% hits. AID 1159583;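 active = 35 to 45% if threefold the growth effect, above 45% if 1.5-fold the growth effect; inactive = the rest, general growth blockers included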;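 note: wells of about 50 µL received 100 nL stock; 0% = vehicle wells and 100% = reference inhibitor wells; whole bacteria with a GFP reporter of the hypoxia response; strong numbers were not always called active; many hits fall short of the cut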
RN4220 kill – S. aureus RN4220 growth inhibition; OD600, 16 h; inhibition, % (test concentration not listed); 330,000 compounds, 0.33% hits; AID 1259311;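 active = z-score of -3 or lower and OD600 up to 0.18 on both plates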;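 note: plate controls were untreated cells for no effect and reference antibiotic for full effect; stock transfer was 100 nL into about 80 µL; one replicate is shown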
Sa ugtP lethal – kills S. aureus RN4220 lacking UgtP; AID 1259309; 330,000 compounds, 0.54% hits; S. aureus RN4220 ugtP deletion, OD600 growth, 16 h; some inactives read as strong as hits; growth inhibition, % (concentration not given with the values);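 active = z-score under -3 and OD600 up to 0.15 on both plates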;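 note: plate controls were untreated wells for no effect and antibiotic for full effect; wells of about 80 µL received 100 nL stock; the first replicate is given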
BJeLR viability – BJeLR cell viability loss | BJeLR (HRASV12) viability, CellTiter-Glo ATP luminescence, 48 h; reference of the scale not given here | inhibition, % (concentration not given with the values) | 300,000 compounds, 0.17% hits | AID 1554;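 active = replicate mean above 50%; inconclusive = above 50% but judged a plate artefact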;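 note: 50 nL library stock added to about 25 µL; numbers are from one replicate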
Autofluor counter – counter-screen for toxin protease inhibitors: compound fluorescence; compound autofluorescence counterscreen, microsphere flow cytometry; hits give high values; fluorescence intensity (test concentration not listed); 360,000 compounds, 3.1% hits; AID 624483;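 active = at least 3 SD above the mean of all compounds, about 16000 in these data; inconclusive = too few beads counted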;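 note: 100 nL of 1 mM stock went into each well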
Mtb hypoxia rep growth – further read-out of Mtb hypoxia rep, marked with its call; growth inhibition, %; measured here: M. tuberculosis growth (absorbance);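 0% = vehicle and 100% = reference antibiotic; read after six days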
Numbers without * were called inactive; u = inconclusive; x = not tested or not shown.

Preview:
SMILES	PrP 5UTR inh	Mtb hypoxia rep	Mtb hypoxia rep growth	RN4220 kill	Sa ugtP lethal	BJeLR viability	Autofluor counter
Cc1ccc(NC(=S)NCc2ccco2)c(C)c1	-6	-5	-8	0.9	-3	-7	5969
O=C(Nc1cc(S(=O)(=O)N2CCCCC2)ccc1N1CCCCC1)C1CC1	-29	5	-4	3.2	15	13	5118
CNS(=O)(=O)c1cccc(C(=O)OCC(=O)Nc2ccccc2F)c1	-2	-3	1	1.3	4	-5	3133

All compounds of this part, repeating the preview:
SMILES	PrP 5UTR inh	Mtb hypoxia rep	Mtb hypoxia rep growth	RN4220 kill	Sa ugtP lethal	BJeLR viability	Autofluor counter
Cc1ccc(NC(=S)NCc2ccco2)c(C)c1	-6	-5	-8	0.9	-3	-7	5969
O=C(Nc1cc(S(=O)(=O)N2CCCCC2)ccc1N1CCCCC1)C1CC1	-29	5	-4	3.2	15	13	5118
CNS(=O)(=O)c1cccc(C(=O)OCC(=O)Nc2ccccc2F)c1	-2	-3	1	1.3	4	-5	3133
COc1cc(NC(=S)N2CCCCC2C)c(OC)cc1Cl (stereo unspecified)	-9	0	5	3.5	-7	-5	3528
CCc1cc2c(=O)c(-c3cnn(-c4ccccc4)c3)c(C)oc2cc1OCC(=O)Nc1ccc(F)c(F)c1	-20	6	10	4.4	-19	1	2330
CC(=O)c1sc2nc(=O)c(C)nn2c1C	-12	12	4	1.3	8	8	4326
Cc1c(CCC(=O)N[C@@H](CCCNC(N)=O)C(=O)O)c(=O)oc2cc3oc4c(c3cc12)CCCC4	9	16	8	0.6	2	3	3706
CCOc1ccc(CCNC(=O)CN(C)S(=O)(=O)c2cccs2)cc1OCC	-15	x	x	x	x	-11	u
C=CCOC(=O)C1=C[C@H](c2ccc(C(F)(F)F)cc2)C[C@H](OCCCCO)O1	-5	x	x	x	x	7	4001
Cc1cccc(NC(=O)C2CCN(S(=O)(=O)c3ccc4c(c3)OCCCO4)CC2)n1	-12	-3	-7	2.1	1	2	u
CCCOc1ccc(C=NNC(=S)Nc2ccccc2[N+](=O)[O-])c(O)c1	x	9	0	1.1	-25	x	x
CC(C)N(Cc1nc(-c2ccc(Cl)cc2)no1)Cc1nccn1C	8	-1	17	0.8	5	2	4441
CC(C)CN1C(=O)C(=O)N(CC(=O)N(C)CC(=O)Nc2ccc(Cl)c(C(F)(F)F)c2)C1=O	-16	2	2	4.6	2	x	2976
O=C1OC(/C=C/c2ccc(Cl)cc2)=NC/1=C/c1ccco1	-13	6	14	1.4	9	-3	10590
Cc1cc(-c2ccco2)n(CC(=O)NCCCc2ccccc2)n1	-28	3	10	3.0	0	5	5130
COCCn1c(SCC(=O)N2CCCCCC2)nc2c(c1=O)SCC2	-3	7	-1	1.7	6	-10	4624
NC(=O)c1nnsc1Sc1c(C(N)=O)nnn1-c1cccc(N)c1	-26	18	11	1.7	12	8	4576
CC(C)c1nc(SCC(=O)N2CCOCC2)c2c(=O)n(C)c(=O)n(C)c2n1	-15	5	8	-9.7	-6	6	6514
CC1(c2ccccc2Cl)NC(=O)N(CC(=O)c2ccc3c(c2)OCO3)C1=O (stereo unspecified)	-20	8	3	2.7	0	2	x
COc1ccc(CCCc2nnc(SCC(=O)Nc3ncc(C)s3)o2)cc1	-21	x	x	4.0	-12	2	2486
COc1cccc(COCC(O)Cn2cnc3cc(C)c(C)cc32)c1 (stereo unspecified)	-4	13	8	6.3	5	0	3765
CCC1(C)Cc2ccccc2-c2c1c(=O)n(Cc1ccccc1)c1nnnn21 (stereo unspecified)	-6	4	3	23	20	2	3254
Cc1cc(=O)[nH]c(N=NC(=NNc2ccc(O)cc2)c2ccccc2)n1	x	12	4	-2.1	5	x	x
CC(C)[C@H](NC(=O)N1CCn2c1nc1ccccc12)C(=O)N[C@H](C(=O)O)c1ccccc1	-6	x	x	4.2	6	-3	4741
Cc1cc(-c2nnc(SCC(=O)Nc3ccccc3C(F)(F)F)o2)c(C)n1-c1ccccc1	34	x	x	-3.3	4	5	5609
Remaining list, next part
SMILES	PrP 5UTR inh	Mtb hypoxia rep	Mtb hypoxia rep growth	RN4220 kill	Sa ugtP lethal	BJeLR viability	Autofluor counter
Cc1cc(Nc2ccccc2O)c2ccccc2n1	-22	11	-1	5.6	-1	2	4622
O=C(c1ccccc1)N(C1=NCCCCS1)c1ccccc1	-16	12	8	5.1	2	-19	6714
O=C(c1ccc(COc2ccc(Cl)cc2)cc1)N1CCCCC1	-29	2	4	19	-2	4	1949
CC1CCCCN1C(=O)COC(=O)c1cc([N+](=O)[O-])ccc1N (stereo unspecified)	-16	x	x	x	x	4	5561
COc1ccc(C2=NNC(=O)CC2)cc1	0	0	-2	4.5	9	-15	2044
COc1ccc(-n2c(C)c3c(OC)cccc(=O)c3c2C)cc1	-37	16	6	10	-5	-9	9939
O=C(COC(=O)Cn1cnc2ccccc21)NCCc1ccc(Cl)cc1	-22	-9	-7	7.0	4	9	3441
COC(=O)C1=C(c2ccc(S(C)(=O)=O)cc2)CC2CCC1N2C(=O)NC1CC1 (stereo unspecified)	x	4	4	4.7	0	x	x
Cc1ccccc1NC(=O)Cn1c(NCC(C)O)nc2ccccc21 (stereo unspecified)	-9	-15	-14	-5.5	-5	10	1956
Cc1cccc(NC(=O)COC(=O)c2cccc3c2C(=O)c2ccccc2C3=O)c1C	0	-2	-3	78	66	3	2143
O=C(COC(=O)C12CC3CC(CC(C3)C1)C2)Nc1nccs1	-16	-8	1	3.3	6	2	4190
COc1cccc(CNS(=O)(=O)c2ccc3c(c2)CC(C)N3C(C)=O)c1 (stereo unspecified)	-17	4	7	11	2	4	5412
O=C(Nc1ccc2c(c1)CCCN2C(=O)c1cccs1)c1c(F)cccc1F	0	12	6	2.2	2	-10	4904
Cc1cc(=O)oc2cc(OCc3ccc(C(=O)OCC(=O)Nc4ccccc4OC(F)F)cc3)ccc12	-20	-2	7	9.8	-3	-1	2456
CCOc1ccc(NS(=O)(=O)c2ccc3c(c2)N(C(C)=O)CCO3)cc1	-6	1	6	1.9	9	6	5430
Nc1ccn(C2CCC(CO)O2)c(=O)n1 (stereo unspecified)	x	5	-1	11	8	x	x
O=C(COC(=O)[C@H](Cc1ccccc1)NC(=O)c1ccco1)Nc1ccccc1OC(F)F	-21	12	13	-1.3	-2	x	6283
Cc1ccc(CNC(=O)[C@H](C)[C@H]2C[C@]2(C)[C@H](NC(=O)OCc2ccccc2)c2ccccc2)o1	7	x	x	x	x	17	2781
O=Cc1c(-[n+]2ccccc2)nc([O-])n1-c1ccccc1	-8	x	x	-1.5	1	4	4623
CC(Cn1nnc([N+](=O)[O-])n1)=NNC(=O)c1cccc(Cl)c1	x	-1	-2	21	58	x	x
COCCn1nnnc1C(c1ccccc1)N1CCN(C)CC1 (stereo unspecified)	-1	x	x	1.6	5	-11	4468
C=CCOC(=O)C1=C(C)OC(N)=C(C#N)C1c1ccc2c(c1)OCO2 (stereo unspecified)	-12	x	x	0.5	-3	4	2650
CC(Oc1ccc(Cl)cc1Cl)C(=O)NN=C1CCCc2ccccc21 (stereo unspecified)	x	-8	1	15	-11	x	x
CC1(C)Cc2c(cnn2-c2ccccc2)-c2c1c1ccccc1n2CC(O)CCl (stereo unspecified)	-9	9	6	-4.6	-13	-15	3172
COc1ccc2cc(C3c4cc(OC)c(OC)cc4CCN3C(=O)c3ccco3)c(=O)[nH]c2c1 (stereo unspecified)	6	-1	2	-1.0	25	-5	3000
(further entries)
SMILES	PrP 5UTR inh	Mtb hypoxia rep	Mtb hypoxia rep growth	RN4220 kill	Sa ugtP lethal	BJeLR viability	Autofluor counter
c1ccc2c(N3CCOCC3)nc(N3CCOCC3)nc2c1	0	x	x	0.9	4	9	3515
O=C(OC1CC2CCC(N2)C1C(=O)O)c1ccccc1 (stereo unspecified)	-48	x	x	4.3	-10	x	5349
CCOc1ccccc1NC(=O)C(=O)N/N=C/c1ccc([N+](=O)[O-])cc1	-6	x	x	x	x	-7	4267
O=C1c2ccccc2C(=O)N1CCSc1n[nH]c(=S)s1	-23	x	x	-0.3	-11	-10	2938
Oc1ccc(Cl)cc1CNn1cnnc1	-11	8	-9	5.1	4	7	4327
CCN(CC)S(=O)(=O)c1ccc(C(=O)Nc2ncn(Cc3ccccc3)n2)cc1	-3	5	9	3.3	8	-4	14938
O=c1c2c3c(sc2n2cnnc2n1Cc1ccccc1)CN(Cc1ccccc1)CC3	-7	x	x	x	x	-6	8293
O=C(Nc1ccccc1N1CCOCC1)c1cccs1	-11	x	x	2.5	2	2	4412
COc1ccc(C)cc1-n1c(SCC(=O)Nc2cc(C)on2)nc2ccccc2c1=O	-22	-9	-6	18	-1	x	4339
CC(C)n1c(=O)c(C=Nc2ccc(F)cc2)c(O)n(Cc2ccco2)c1=O	-7	14	7	1.6	-4	-3	2054
CCOC(=O)/C(=N\Nc1ccccc1Cl)N1CCN(c2ccccc2OC)CC1	-20	x	x	x	x	3	4268
Cn1c(O)c(C=NCCN2CCNCC2)c(=O)n(C)c1=O	-20	-3	9	4.0	6	3	9038
N#Cc1ccccc1S(=O)(=O)N1CCN(C(=O)C2CCC2)CC1	-16	8	4	1.2	3	5	4986
Cc1ccc(SC(C)C(=O)O/N=C(\N)c2ccncc2)cc1 (stereo unspecified)	-19	11	-13	2.9	9	-4	4135
Cc1cccc(C)c1NC(=O)CNC(=O)C(Cc1ccccc1)NC(=O)c1ccccc1 (stereo unspecified)	-5	-3	14	0.2	-3	2	u
CC(=O)OCC(=O)Nc1cc(S(=O)(=O)N2CCCCCC2)ccc1Cl	-30	5	4	3.1	10	-3	3959
COc1ccc(C(=O)NC(=S)N2CCCCC2)cc1[N+](=O)[O-]	-19	x	x	4.4	10	-17	2177
COc1ccc(NC(=O)Cc2cccc3ccccc23)cc1	-22	16	4	-0.7	2	7	3921
O=[N+]([O-])c1cc2c(cc1/C=N/n1c(-c3ccccc3)n[nH]c1=S)OCO2	-24	x	x	x	x	-3	4512
COCCN(C(=O)CSc1n[nH]c(-c2ccccc2)n1)c1c(N)n(Cc2ccccc2)c(=O)[nH]c1=O	-16	8	0	1.0	4	8	u
O=C(O)c1cccc(NC(=S)NN=Cc2cccc(O)c2)c1	x	0	0	5.5	-4	x	x
Cn1c(SCC(=O)NCCc2ccccc2)ncc(C(=O)Nc2ccc(F)cc2)c1=O	-6	12	1	0.5	-2	0	5801
CCOc1ccc(-c2nnn(CC#N)n2)cc1OC	-7	5	11	-2.0	-2	0	4284
Cc1nc2nc(-c3ccc(Cl)cc3)cn2nc1C	38	x	x	x	x	1	2447
O=C(/C=C/c1ccco1)NCCc1ccc(F)cc1	-30	9	10	3.5	7	-8	4036

Compound profiles, from the list above. Screens in order: PrP 5UTR inh, Mtb hypoxia rep, Mtb hypoxia rep growth, RN4220 kill, Sa ugtP lethal, BJeLR viability, Autofluor counter
`Cn1c(O)c(C=NCCN2CCNCC2)c(=O)n(C)c1=O` is entered as -20, -3, 9, 4.0, 6, 3, 9038
`O=C1c2ccccc2C(=O)N1CCSc1n[nH]c(=S)s1` is entered as -23, x, x, -0.3, -11, -10, 2938
`O=C(O)c1cccc(NC(=S)NN=Cc2cccc(O)c2)c1` is entered as x, 0, 0, 5.5, -4, x, x

(next part)
SMILES	PrP 5UTR inh	Mtb hypoxia rep	Mtb hypoxia rep growth	RN4220 kill	Sa ugtP lethal	BJeLR viability	Autofluor counter
O=S(=O)(Cc1ccccc1)NCc1ccccn1	4	7	5	-2.2	9	2	21025*
CSc1cccc(CN2CCC(n3nccc3NC(=O)C3CC3)CC2)c1	-18	5	4	0.9	2	0	6491
O=C(CNCCc1ccc(Cl)cc1Cl)NCc1ccco1	-20	16	8	5.9	3	-6	4563
O=C(c1ccc(S(=O)(=O)c2ccccc2)cc1)N1CCc2ccccc2C1	-94	11	6	6.8	-1	-8	2701
COC(=O)c1ccc(Cl)c(NC(=O)CSc2ncn[nH]2)c1	-17	x	x	5.0	0	-3	3348
Cc1n[nH]c(C)c1NC(=O)c1cc([N+](=O)[O-])ccc1Cl	-22	1	-1	1.1	1	-4	3381
Cc1ccc(S(=O)(=O)C2(C(=O)N3CCCCCC3)CC2)cc1	-12	3	-1	0.1	8	2	16721*
O=c1c2ccccc2sc2ccc(NCCCN3CCOCC3)cc12	-34	10	21	-4.3	7	-6	4527
NS(=O)(=O)c1ccc(CCNC(=O)c2cccnc2)cc1	-20	7	4	1.5	7	-13	20577*
Cc1ccc(NC(=O)COc2ccc(N3CC(C(N)=O)CC3=O)cc2)c(C)c1 (stereo unspecified)	-23	-10	3	4.5	14	-7	6170
CC(=O)OC(C(=O)NC1CCCCC1)c1cccc(F)c1 (stereo unspecified)	-62	19	16	3.8	11	4	4625
